Screening results from PubChem.
Vaccinia mCherry – inhibitors of vaccinia virus infection (mCherry reporter signal) | Vaccinia virus mCherry reporter infection, fluorescence; about a quarter of the inactives have no number | Potency, µM (titrated, usually from 36.5 µM), for the others: at the top dose activity change, negative = inhibition, hits mostly inhibitors | 310,000 compounds, 0.63% hits | AID 720579; active = well fitted inhibition curve with a large enough effect; inconclusive = small, poorly fitted or top-dose-only effect; inactive = no such curve, though single readings can be large or run the other way; tested in A549 cells; note: nearly all actives have a fitted effect of over 35% in size; inactives centre near -10
VACV Venus inh – inhibitors of vaccinia virus (Venus reporter); Vaccinia virus Venus reporter expression, fluorescence; AID 720580; Potency, µM (series often up to 36.5 µM), for inactives: at the highest dose activity change, negative = inhibition, usual class: inhibitors; 330,000 compounds, 0.46% hits; active means well fitted inhibition curve with a large enough effect; inconclusive means small, poorly fitted or top-dose-only effect; inactive means no such curve, though single readings can be large or run the other way; tested in A549 cells; note: nearly all actives have a fitted effect of over 30% in size; inactives centre near -10
An asterisk follows results filed as active; i = inactive; ? = inconclusive; nt = not tested or not shown; [ ] = remark or other dose. % is set by controls: 0 for no effect and ±100 for the full control effect; potency is the fitted concentration of half-maximal effect.

smiles	Vaccinia mCherry	VACV Venus inh
CCCCn1nnnc1C(CC)N1CCN(C/C=C/c2ccccc2)CC1 (centres undefined)	-11%	-8%
COC(=O)c1cccc(NC(=O)Cc2ccccc2[N+](=O)[O-])c1C	-1%	-12%
COc1ccc(-n2c(=O)/c(=C\c3cccs3)s/c2=C(/C#N)C(=O)NCCN2CCOCC2)cc1	i	2%
Cc1ccc2sc(NNC(=O)C3COc4ccccc4O3)nc2c1C (centres undefined)	?	-21%
FC(F)(F)c1ccc(NCCc2ccccc2)nc1	i	-15%
CCc1nn(Cc2cccc(F)c2)c(=O)c2cc3cc(C)ccc3n12	-20%	-7%
C=CCn1c(COc2ccccc2F)nnc1SCCN1C(=O)c2ccccc2C1=O	-5%	-29%
CC12CCC(C/C1=N/O)C2(C)C (centres undefined)	1%	-5%
COc1ccc(OC)c(CN2CCN(C(=O)c3cc(S(=O)(=O)Nc4ccccc4OC)ccc3C)CC2)c1	-6%	-28%
CC(C)CNC(=S)N(Cc1ccco1)Cc1cc2cc3c(cc2[nH]c1=O)OCCO3	-15%	?
CC(C)(C)N(Cc1ccccc1)C(=O)COC(=O)CN1C(=O)NC2(CCCC2)C1=O	-17%	-9%
CSc1ccc(S(=O)(=O)NCC(=O)OCC(=O)NCc2cccs2)cc1[N+](=O)[O-]	-15%	1%
O=S1(=O)N=C(N/N=C/c2ccc(Br)o2)c2ccccc21	i	5%
CCOc1ccc(N2C(=O)/C(=C\c3ccc(OC)c(O)c3)S(=O)(=O)C2c2cccc([N+](=O)[O-])c2)cc1 (centres undefined)	i	-8%
COc1ccc(/C=N/NC(=O)c2cc3c(OC)ccc(OC)c3[nH]2)cc1O	7.1µM*	?
Cc1sc2ccccc2c1CNC[C@H]1O[C@@H](n2ccc(N)nc2=O)[C@H](O)[C@@H]1O	i	-8%
COc1ccc(C2CC(=O)c3c([nH]c(C(=O)OCc4ccccc4)c3C)C2)cc1 (centres undefined)	?	?
Cn1cc([N+](=O)[O-])c(C(=O)Nc2ccc(C(=O)N3CCCCC3)cc2)n1	-24%	-10%
CN(C)/C=C\C(=C/C(=O)C(F)(F)F)Nc1ccccc1Oc1ccccc1	-23%	-25%
C=CCc1ccc(OCC(O)CN2CCCCC2C)c(OC)c1 (centres undefined)	nt	-8%
O=C(c1ccccc1)c1ncc[nH]1	i	-7%
CCn1cc(C(=O)NCCCN(C)C)c(=O)c2cc(F)c(N3CCN(C)CC3)cc21	-8%	-3%
COc1ccc(N2C(=O)/C(=C/c3ccc([N+](=O)[O-])cc3)N=C2C)cc1	6%	4%
CCOC(=O)C1=C(c2ccccc2)ON(C)C1c1ccccc1 (centres undefined)	-15%	-5%
CCC(C)(C(=O)NC1CCCCC1)N(C)C(=O)c1ccccn1 (centres undefined)	nt	-24%

Some of the entries above, reformatted.
Values run as follows: Vaccinia mCherry, VACV Venus inh
> Cc1ccc2sc(NNC(=O)C3COc4ccccc4O3)nc2c1C (centres undefined)
 : ?, -21%
> FC(F)(F)c1ccc(NCCc2ccccc2)nc1
 : i, -15%

Other results
smiles	Vaccinia mCherry	VACV Venus inh
CC(C)CNS(=O)(=O)c1ccc(CCC(=O)N2CCOCC2)cc1	-14%	-5%
COc1ccc([C@@H]2C[C@H]3[C@@H](CN2S(=O)(=O)c2ccccc2)C(=O)C[C@@H](c2ccccc2)N3S(=O)(=O)c2ccc(C)cc2)cc1	?	-7%
Cn1ncc(C#N)c1NC(=O)c1nn2cccnc2c1Cl	-13%[1.46 µM]	-17%
O=C(NCCC(F)(F)F)C1Cc2c(-c3cccc(F)c3)ccnc2O1 (centres undefined)	-17%	7%
Cc1ccc(Cl)cc1-n1c(=O)cc(N2CCN(c3ccc(F)cc3)CC2)[nH]c1=O	-4%	-8%
Cc1ccc(Nc2ccc(C(N)=O)cc2[N+](=O)[O-])cc1	-8%	-4%
C[C@@H]1CN([C@@H](C)CO)S(=O)(=O)c2ccc(Br)cc2O[C@H]1CN(C)C(=O)C1CCCCC1	-12%	-15%
Nc1nc(SCC(=O)NCc2ccc(F)cc2)[nH]c(=O)c1NC(=O)c1ccc(Cl)cc1	i	-12%
O=C(CN1C(=O)c2ccccc2S1(=O)=O)NC1CCCCCC1	i	2%
CCSc1nc(N2CCOCC2)c2ccccc2n1	i	-4%
CCc1cccc(OCCn2ccnc2)c1	-13%	-3%
COC(=O)c1ccc(NC(=O)CN(C)Cc2cccc(F)c2)cc1	i	-15%
CCN(CC(=O)NCC(=O)Nc1ccc(Br)cc1C)Cc1ccccc1	?	-7%
CS(=O)(=O)Nc1ccc(C(=O)CC(=O)Nc2ccc([N+](=O)[O-])cc2)cc1	-15%	-7%
COC(=O)/C(=N\OCc1ccc(C#N)cc1)c1c(C)nn(C)c1C	-2%	-12%
Cc1cc(NC(=O)CCS(=O)(=O)c2nc(-c3ccccc3)cc(C(F)(F)F)n2)no1	nt	?
Cc1ccsc1C(=O)NNC(=O)c1csc(N2CCOCC2)n1	-10%	-6%
O=C(NCCCN1CCOCC1)c1c(-c2ccccc2)oc2c1C(OCCCCCO)CCC2 (centres undefined)	-1%	-5%
Cc1ccc(S(=O)(=O)N[C@H](CO)C(C)C)cc1	-2%	-1%
COc1ccc(C2C(C(=O)N3CCOCC3)c3ccccc3C(=O)N2c2ccc(OC)cc2)cc1 (centres undefined)	i	-2%
Cc1ccc2occ(CC(=O)N(Cc3ccc(Cl)cc3)Cc3ccco3)c2c1	-8%	-13%
Cc1csc(CNC(=O)C2CCC(=O)N(CCc3cccc(F)c3)C2)n1 (centres undefined)	i	-15%
O=C(C1CCC1)N1CCc2cc(S(=O)(=O)NCCc3ccccc3)ccc21	1%	-2%
Cc1ccc(NC(=O)NNC(=O)c2ccc3c(c2)NC(=O)C(C)(C)O3)cc1	-19%	1%
CCCCOc1ccccc1Cn1c(=O)sc2ccccc21	-5%	-6%

The listing continues.
smiles	Vaccinia mCherry	VACV Venus inh
C=CCn1cccc(C(=O)Nc2cc(OC)ccc2OC)c1=O	-13%	-13%
COC(=O)[C@@]12CCCCN1[C@H](c1ccc(-c3ccc(Cl)c(Cl)c3)c(OC)c1)[C@H]1C(=O)N(C)C(=O)[C@H]12	-18%	?
CCC(CC)C(=O)N(C)c1c(C)nc2c(OCc3cccc(Cl)c3)cccn12	-9%	-14%
Cc1ccc(C(=O)C2=C(O)C(=O)N(c3ncccn3)C2c2ccc(Br)cc2)o1 (centres undefined)	i	0%
CCc1nnc(SCc2cccc(F)c2)c2cc3sc(C)cc3n12	i	-14%
Fc1cccc(Cc2c(-c3cccc(Cl)c3)nc3c4ccccc4ccn23)c1	13%	4%
O=C(Cn1c(=O)oc2cccnc21)Nc1ccc(C(F)(F)F)cc1	-13%[7.34 µM]	1%[7.34 µM]
COC(=O)c1sc(-c2ccccc2)cc1NC(C)=O	-1%	-7%
CSc1nsc(SCC(=O)NCc2ccccc2)n1	-13%	-23%
CCCNC(=O)C1(C)CCCN(Cc2csc(-c3ccccc3)n2)C1 (centres undefined)	-3%	-12%
CCOC(=O)C1CCCN(Cc2nc(N)nc(Nc3ccc(C)cc3)n2)C1 (centres undefined)	-12%	-25%
c1ccc(Nc2cccc(Nc3ccccc3)c2)cc1	?	-24%
CC(=O)NC(CC(=O)NCC(=O)Nc1ccc(F)c(F)c1)c1ccccc1 (centres undefined)	-8%	-1%
Cc1cccc(-c2nc3c4ccccc4n(CC(=O)Nc4cc(F)ccc4F)c(=O)n3n2)c1	6%	-5%
O=C(c1ccccc1)N1CCC(=O)N(C(CO)Cc2ccccc2)CC1 (centres undefined)	-21%	-11%
Cc1ccc(CN2CCc3nc(N4CCN(c5ccccc5F)CC4)ncc3C2)cc1C	?	-23%
COc1ccc(NC(=O)CSc2nnc3n2CCCCC3)cc1OC	-8%	-3%
Cc1ccc(NC(=O)CCn2c(=O)c3cccn3c3ccccc32)cc1C	-9%	-10%
O=C(NCc1ccccn1)[C@H]1C[C@@H]1[C@H](NP(=O)(c1ccccc1)c1ccccc1)c1ccccc1	i	-10%
COCCNCCOCCOc1ccc(Cl)c(C)c1	nt	-13%
Cc1c(Cl)cnc(NC(=O)COC(=O)c2ccc3c(c2)OCO3)c1Cl	-10%	-7%
Cc1ccc2c(c1)cc1c(=O)n(CC(=O)NCc3ccco3)nc(C)n12	-10%	-4%
CCOc1ccc2oc(C(=O)O)c(C)c2c1	-6%	-15%
COc1ccc(C(=O)NC(CCSC)C(=O)N2CCCCCC2)cc1 (centres undefined)	-18%	-8%
CCn1nc(C)c(/C=N/NC(=O)Cn2nc(C)cc2C)c1C	-6%	-10%

The listing continues:
smiles	Vaccinia mCherry	VACV Venus inh
C/C(CC(=O)Nc1cc(Cl)ccc1Cl)=N\NC(=O)c1ccco1	-16%	-12%
CCCn1c(=O)c(C(=O)NNC(=O)Cc2ccccc2)c(O)c2ccccc21	-24%	-12%
Clc1cccc(Cl)c1NC1=NCCS1	-10%	-9%
Cc1cc(C(=O)C(=O)Nc2nnc(C(C)C)s2)c(C)n1-c1ccccc1	-5%	-4%
O=C(Nc1cc2c(cc1C(=O)c1ccccc1Cl)OCCO2)c1ccccc1	-8%	-15%
c1ccc(-c2nc(NC3CCCC3)c3ccccc3n2)cc1	-14%	?
COc1cc(OC)cc(-c2c(Sc3ccccc3)c3cc(-c4ccc(OC)nc4)ccc3n2C)c1	1%	0%
O=C1NC(c2ccccc2)C(c2ccccc2)N1 (centres undefined)	-14%	0%
O=C(NC1CCCCC1)N1CCCC(c2nc(-c3cccs3)no2)C1 (centres undefined)	-15%	-24%
COC(=O)c1ccccc1NC(=S)N(C)C	i	-14%
Cc1[nH]nc2c1C1(C(=O)N(Cc3ccc(Cl)cc3)c3ccccc31)C(C#N)=C(N)O2 (centres undefined)	-14%	-20%
Cc1c(N=Cc2c(O)n(CCc3ccc(F)cc3)c(=O)[nH]c2=O)c(=O)n(-c2ccccc2)n1C	?	-2%
CN(C)Cc1ccccc1-c1cncnc1NC1CC1	15%	18%
CC1=NN(C)C(=O)C1Cc1c(F)cccc1Cl (centres undefined)	-12%	-10%
COc1ccc(NS(=O)(=O)c2ccc(Oc3cccc(C(=O)O)c3)cc2)cc1	-8%	1%
Cc1cccc(C(=O)NCc2cn3cccc(C)c3n2)c1	-11%	-5%
Cc1cccc(NC(=O)c2ccc([N+](=O)[O-])cc2Cl)n1	-23%	-7%
COCCCN1C(=O)c2ccc(C(=O)OCC(=O)NCCc3ccccc3)cc2C1=O	-20%	-10%
CN(C)S(=O)(=O)c1cccc(NC(=S)NCc2ccc3c(c2)OCO3)c1	-11%	-13%
COC(=O)C(CCSC)NC(=O)CNC(=O)C1CCCCC1 (centres undefined)	-10%	-2%
COc1ncnc2c1ncn2CCCNCCCN1CCCC1=O	i	5%
C/C(N)=C(/C#N)C(=O)CSc1nnc(SCc2ccc(Cl)cc2)s1	?	?
COc1ccc(-n2ncc3c(NCCCOC(C)C)ncnc32)cc1	-16%	-13%
O=C(NC1(C(F)(F)F)C(=O)Nc2c1c(=O)[nH]c(=O)n2Cc1ccco1)C1CC1 (centres undefined)	i	-5%
COc1ccccc1CNC(=O)CCCN1C(=O)NC2(CCCC2)C1=O	-21%	5%

(next part)
smiles	Vaccinia mCherry	VACV Venus inh
CCCN1CNc2c(c(=O)[nH]c(=S)n2CCc2ccsc2)C1	-3%	-14%
Cn1cnc2c(NC3CCCC3)ncnc21	-30%	-19%
CCNS(=O)(=O)c1ccc(CCC(=O)N2CCN(c3ccccc3F)CC2)cc1	-6%	-23%
COc1ccc([C@H]2N[C@]3(CCCN(Cc4ccc(C)cc4)C3=O)[C@H]3C(=O)N(Cc4ccccc4)C(=O)[C@@H]23)cc1	-15%	?
CCOc1ccc(CCNc2ncnc3onc(-c4ccc(Cl)cc4)c23)cc1OCC	-10%	-9%
COC(=O)COc1ccc(S(=O)(=O)NCc2cccnc2)cc1C	-7%	-12%

A section from the list above:
smiles	Vaccinia mCherry	VACV Venus inh
CN(C)S(=O)(=O)c1cccc(NC(=S)NCc2ccc3c(c2)OCO3)c1	-11%	-13%
COC(=O)C(CCSC)NC(=O)CNC(=O)C1CCCCC1 (centres undefined)	-10%	-2%
COc1ncnc2c1ncn2CCCNCCCN1CCCC1=O	i	5%
C/C(N)=C(/C#N)C(=O)CSc1nnc(SCc2ccc(Cl)cc2)s1	?	?
COc1ccc(-n2ncc3c(NCCCOC(C)C)ncnc32)cc1	-16%	-13%
O=C(NC1(C(F)(F)F)C(=O)Nc2c1c(=O)[nH]c(=O)n2Cc1ccco1)C1CC1 (centres undefined)	i	-5%
COc1ccccc1CNC(=O)CCCN1C(=O)NC2(CCCC2)C1=O	-21%	5%
CCCN1CNc2c(c(=O)[nH]c(=S)n2CCc2ccsc2)C1	-3%	-14%
Cn1cnc2c(NC3CCCC3)ncnc21	-30%	-19%
CCNS(=O)(=O)c1ccc(CCC(=O)N2CCN(c3ccccc3F)CC2)cc1	-6%	-23%
COc1ccc([C@H]2N[C@]3(CCCN(Cc4ccc(C)cc4)C3=O)[C@H]3C(=O)N(Cc4ccccc4)C(=O)[C@@H]23)cc1	-15%	?
CCOc1ccc(CCNc2ncnc3onc(-c4ccc(Cl)cc4)c23)cc1OCC	-10%	-9%
COC(=O)COc1ccc(S(=O)(=O)NCc2cccnc2)cc1C	-7%	-12%
